# HSD17B inh: inhibitors of human HSD17B10 dehydrogenase | Q99714 | recombinant HSD17B10, NADH fluorescence kinetic; many of its hits are not listed in these tables | Potency, µM (top dose mostly 57.1 µM), inactives show top-dose activity change, negative = inhibition, actives largely listed as inhibitors | 75,000 tested, 7.6% active | AID 893; active means well fitted inhibition curve with a large enough effect; inconclusive means small, poorly fitted or top-dose-only effect; inactive means no such curve, though single readings can be large or run the other way;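 further: the protocol describes HADH2 (HSD17B10) and not the HSD17B4 of the title; nearly all actives have a fitted effect of over 70% in size; most hits overshoot -100% by far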
#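 His-tagged E. coli-expressed HADH2 at 20 nM in 100 mM Tris-HCl pH 9.0 with 0.01 % Tween-20, preincubated 15 min with compound at room temperature. Reaction with 1 mM NAD+ and 90 uM beta-hydroxybutyryl coenzyme A; NADH fluorescence (360/450 nm) read kinetically over 4 min, last minus first point.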
# * = called active by the depositor; ? = inconclusive; [ ] = dose if it differs, or a comment. On the % scale 0 is the no-effect control and ±100 the full control effect; potency means the concentration at half of the fitted maximal effect. Not all compounds are listed; count on the stated rates, not on these rows.
SMILES,HSD17B inh
CSCCC(NC(=O)c1c(C)oc2c1CCCC2)C(=O)O (stereo not drawn),0%
CCOC(=O)c1cnn(-c2nc3sc4c(c3c(=O)[nH]2)CCCC4)c1N,10%
Cc1ccc2c(c1)c1cccc3c1n2CCN3CCC(N)=O,32µM*
COc1ccc(-n2nnc3c(SCc4ccccc4)ncnc32)cc1,-10%
CCC(NS(=O)(=O)c1ccc(OC)cc1)C(=O)O (stereo not drawn),9%
NC1=NC(c2ccc(Cl)cc2)n2c(nc3ccccc32)N1 (stereo not drawn),0%
CCOc1ccc2nc(SCC(=O)N(C)C3CCS(=O)(=O)C3)[nH]c2c1 (stereo not drawn),-1%
CCC(c1c(C)[nH]oc1=O)c1c(C)[nH]oc1=O,-2%
CCC(Sc1ccc2nnc(-c3ccc(OC)c(OC)c3)n2n1)C(=O)O (stereo not drawn),-12%
COc1ccc(OC)c(S(=O)(=O)Nc2ccccc2F)c1,4%
CCOc1cc(C(=O)Nc2cc(=O)n(C)c(=O)n2C)cc(OCC)c1OCC,4%
CCC1Oc2ccccc2N(CC(=O)NCCCN2CCN(Cc3ccccc3)CC2)C1=O (stereo not drawn),5%
CCOc1cc(/C=N/NC(=O)c2cc(-c3cccc(OC)c3)n[nH]2)ccc1O,-5%
CCCC(=O)Nc1ccc(C(=O)NCC(=O)OCC)cc1,25µM*
Cc1c(NS(=O)(=O)c2ccc3[nH]c(=O)[nH]c3c2)c(=O)n(-c2ccccc2)n1C,-8%
CN(C)CCC(c1ccc(Br)cc1)c1ccccn1 (stereo not drawn),-3%
COc1ccc(S(=O)(=O)N2CCSC2c2ccccc2)cc1 (stereo not drawn),3%
Cc1cc(C)n2c(SCC(=O)NCc3ccco3)nnc2n1,-6%
CC(NC(=O)COc1ccccc1)C(c1ccccc1)N1CCN(C)CC1 (stereo not drawn),-12%
COC(=O)c1sc2ccccc2c1C(=O)OC,-14%
CC(C)CCNc1nc2c(c(=O)[nH]c(=O)n2C)n1CC(O)COC(C)C (stereo not drawn),6%
CCOC(=O)c1c(C)[nH]c(C)c1C(=O)COC(=O)CCOc1ccccc1OC,-2%
CCOc1ccc(Br)cc1S(=O)(=O)Nc1ccccc1N1CCOCC1,-11%
COc1ccc(CC2NCCC3(O)CCCCC23)cc1 (stereo not drawn),7%
CO[C@@H]1/C=C\O[C@@]2(C)Oc3c(C)c(O)c4c(c3C2=O)C(=N[C@H]2CC[C@H](O)O[C@@H]2C)C=C(NC(=O)/C(C)=C\C(=O)[C@@H]2C[C@@H]2[C@@H](O)[C@H](C)[C@@H](O)[C@H](C)[C@H](OC(C)=O)[C@@H]1C)C4=O,?
# The list goes on.
SMILES,HSD17B inh
CN(C)c1ccc(C(c2ccc(N(C)C)cc2)c2ccc([N+](=O)[O-])cc2)cc1,4%[11.4 µM]
CCN(CC)CCn1c(=S)[nH]c2cc(Cl)ccc2c1=O,-17%
CCn1c(NCc2c[nH]c3ccccc23)nc2ccccc21,-5%
O=C(Nc1ccc2oc(-c3ccccc3Cl)nc2c1)c1cncc(Br)c1,25µM*
COc1ccccc1CNc1nc(-c2c(C)noc2C)nc2ccccc12,?
Cc1ccc(CNC(=O)CCS(=O)(=O)c2ccc(Br)s2)o1,-7%
Cc1ccc(Nc2nc(C)cc(C)n2)c(Br)c1,1%
CCN1CCN(C(=O)C2=C(C(=O)O)CCCC2)CC1,4%
CCOC(=O)N1CCN(S(=O)(=O)c2cc(Cl)c(OC)cc2Cl)CC1,3%
O=C(Nc1nnc(C2CCCCC2)s1)c1ccc(Br)s1,7%
O=C(N1CCOCC1)n1nnc2ccccc21,3%
COc1cc(N2C(=O)NC3CC2(C)Oc2ccccc23)cc(OC)c1OC (stereo not drawn),11%
O=C(O)Cn1nc(-c2ccccc2)c2ccccc21,?
COc1ccc(C2=CC(c3ccc(F)cc3)n3nnnc3N2)cc1 (stereo not drawn),18%
Cc1cc(NC(=O)CSc2nnc(-c3ccco3)o2)no1,-1%
CCCC(=O)NCCCc1nc2ccccc2n1C,2%
N#Cc1c(N)nc2c(c1-c1ccco1)CCCCC2,?
CCOC(=O)c1ccc(NC(=O)CN2CCN(c3ccccc3)CC2)cc1,2%
CCOC(=O)N1CCN(CC(=O)c2ccc3c(c2)CCN3C(C)=O)CC1,?
O=C(COc1ccc(Cl)cc1)NCc1nnc(SCC(=O)N2CCCc3ccccc32)o1,4%
Cc1cccc(N2CCN(c3nnnn3-c3ccccc3)CC2C)c1 (stereo not drawn),-8%
CCc1nc(C)c(-c2ccccc2)c(=O)[nH]1,15%
N#Cc1cccc(-c2cncnc2NCCc2cnc[nH]2)c1,9%
O=C(COC(=O)c1ccccc1F)c1ccc(-n2nncc2-c2ccco2)cc1,?
Cc1cc(NC(=O)Cn2nc3c(cc2=O)CCCC3)ccc1Br,-4%
# (listing goes on)
SMILES,HSD17B inh
Oc1ccc(Cl)cc1C=Nc1cnc2ccccc2c1,4µM*
O=c1oc2c3c(nn2c2ccccc12)CCCC3,35%[activator]
CC(C)OCC(O)CSc1ccccn1 (stereo not drawn),5%
COc1ccc(Oc2ccc(S(=O)(=O)N3CCCCC3)cc2S(=O)(=O)N2CCCCC2)cc1,-20%
COc1cccc(-n2nnnc2SCC(=O)N2CCCc3ccccc32)c1,-9%
CS(=O)(=O)c1ccc(N2CCOCC2)c(S(C)(=O)=O)c1,1%
Cc1ccc(-c2nnn(CCC(=O)NC3CCCC3)n2)cc1,5%
Cn1c(=O)oc2cc(S(=O)(=O)NCCN3CCCCCC3)ccc21,7%
Cc1nc2ccccc2nc1OCC(=O)Nc1cc(C(F)(F)F)ccc1N1CCOCC1,7%
Cc1ccc(CN(CC2CCCO2)C(=O)CN2C(=O)C(C(C)C)Oc3ccccc32)o1 (stereo not drawn),-10%
COC(=O)c1c(NC(=O)c2ccco2)sc2c1C(C(=O)OC)CC2 (stereo not drawn),?
O=C(Cn1c(=O)sc2ccccc21)Nc1ccc(S(=O)(=O)N2CCCCC2)cc1,17%
O=C(c1ccccc1)c1ccc(N2CCCC2)cc1,36%[activator]
O=C(Nc1ccccc1)N(CCCN1CCOCC1)Cc1cccs1,3%
COc1cc2[nH]c(=O)n(Cc3ccc(C(=O)NCC4CCCO4)cc3)c(=O)c2cc1OC (stereo not drawn),32µM*
Cc1ccccc1-n1nnnc1SCc1ncc(-c2ccccc2)o1,-25%
CCCOc1ccc(Cn2c(=O)oc3ccc(C)cc32)cc1OC,-7%
Cn1c(=O)c2c(nc(CN3CCc4ccccc4C3)n2Cc2ccccc2F)n(C)c1=O,?
Cn1c(Cn2c(=O)sc3ccccc32)nnc1SCC(=O)Nc1ccccc1F,15%
CN1CCN(C(c2cccc(C(F)(F)F)c2)c2nnnn2C(C)(C)C)CC1 (stereo not drawn),7%
Cc1cc(Oc2ccccc2)nc(N)n1,0%
COc1ccc(C(=O)/C=C/Nc2cc(C)on2)cc1,?
COc1ccc2[nH]c3ccc(OC)cc3c2c1,25µM*
COc1ccc(OC)c(S(=O)(=O)n2ccnc2)c1,6%
O=c1[nH]c2ccsc2c(=O)n1-c1ccc(F)cc1,-17%

# 2 of the compounds above, tab-delimited:
SMILES	HSD17B inh
COc1ccc(OC)c(S(=O)(=O)n2ccnc2)c1	6%
Cn1c(Cn2c(=O)sc3ccccc32)nnc1SCC(=O)Nc1ccccc1F	15%

# More structures
SMILES,HSD17B inh
O=C(Nc1ccc(N2CCOCC2)c(F)c1)c1ccncc1,-9%
O=C(c1cc2ccccc2oc1=O)N1CCN(C(=O)C2CCCO2)CC1 (stereo not drawn),-13%
N#Cc1cccc(-c2nc3cnc(Nc4ccccc4)nc3n(C[C@H]3CCCO3)c2=O)c1,-2%
CC(C)c1nnc(NC(=O)CCC(=O)NCc2ccco2)s1,-13%
COc1cccc2cc(C(=O)N3CCc4ccccc4C3)c(=O)oc12,-1%
COc1cc(S(=O)(=O)NCCc2ccc3c(c2)OCO3)ccc1-n1cnnn1,2%
CCOC(=O)c1[nH]c(C)c(C(=O)NC2CCN(C(=O)OCC)CC2)c1C,8%
O=C(Nc1ccccc1N1CCN(C(=O)c2ccccc2)CC1)c1ccc2c(c1)OCO2,?
Cc1ccc(S(=O)(=O)C2(C(=O)N(C)C3CCCCC3)CC2)cc1,-4%
CN(C)C(=O)c1ccc(-c2nc(N3CCOCC3)c3ccccc3n2)cc1,?
O=C(CN1CCC(NC(=O)Nc2ccccc2-c2ccccc2)CC1)NCc1ccco1,1%
O=C(c1cccs1)N(Cc1ccco1)C1CCS(=O)(=O)C1 (stereo not drawn),6%
CCc1ccc2[nH]c(=O)c(CN(CCN3CCCC3)C(=O)NC3CCCCC3)cc2c1,-25%
O=C(Cn1cccc1C(=O)c1ccccc1)NCc1ccc2c(c1)OCO2,1%
CCC(=O)Oc1c(S(=O)(=O)c2ccc(C)cc2)c(C)nn1C(C)(C)C,-13%
O=C(NC1CCCCCCC1)C1CCN(S(=O)(=O)N2CCC3(CC2)OCCO3)CC1,9%
CC(=O)CC(=O)NC1C2CC3CC(C2)CC1C3 (stereo not drawn),0%
O=C(O)C[C@H](S)C(=O)O,9%[11.4 µM]
CCNC(=O)c1ccc(NS(=O)(=O)c2ccccc2)cc1,-28%
Cn1c(=O)c2c(nc(NCc3ccco3)n2C)n(C)c1=O,2%
CCCSc1n[nH]c(NC(C)=O)n1,4%
Cn1c(SCC(=O)c2ccc(-c3ccccc3)cc2)nnc1-c1ccco1,?
O=C(NCCNCCO)c1c(O)c2cccc3c2n(c1=O)CCC3,?
COC1CCCCC1Nc1cc(C)ccc1C (stereo not drawn),8%
COc1ccc(N(CC(=O)NCC2CCCO2)S(=O)(=O)c2c(C)noc2C)cc1 (stereo not drawn),-2%
# Continued:
SMILES,HSD17B inh
COc1cc(CNc2cc(C)ccc2C)cc(OC)c1OC,9%
CCOc1ccc(NC(=O)c2ccc(S(=O)(=O)N(C)C)cc2)cc1,-3%
Cn1c(SCC(=O)NC(C)(C)C)nc(O)cc1=O,8%
Cc1cccc(C)c1N(CC(=O)N1CCN(C)CC1)S(C)(=O)=O,3%
Oc1ccc(Oc2ncc(Cl)cc2Cl)cc1,-10%
COc1ccccc1-c1cc(C(=O)N2CCc3ccccc3C2)no1,-14%
O=C(O)c1cccc2c1C(=O)N(Cc1ccncc1)C2,2%
COC(=O)c1ccc(C23CC4(C2)[C@H](CN(Cc2cccnc2)[C@@H]4c2ccccc2)C3c2ccc(C(F)(F)F)cc2)cc1 (stereo partly drawn),2%
COc1ccccc1N1CCN(C(=O)CSc2nc3ncnc(N)c3[nH]2)CC1,2%
O=C(Nc1ccc(Cl)cc1C(=O)N1CCOCC1)c1ccco1,11%
COc1ccc(OC)c2[nH]c(=O)c(CCNC(C)=O)cc12,?
CCCC1C(C#N)=C(N)Oc2n[nH]c(C(C)(C)C)c21 (stereo not drawn),3%
CCc1nnc(NC(=O)c2c(O)c3cccc4c3n(c2=O)CC4)s1,-3%
Cc1cc(=O)[nH]c(-n2nc(C)c(Oc3ccccc3O)c2C)n1,-2%
COc1ccccc1CNS(=O)(=O)c1c(C)noc1C,12%
COc1ccc(-c2nnc(SCC(=O)c3ccco3)n2-c2ccccc2)cc1,-4%
CCC(=O)N1CCc2cc(Br)cc(S(=O)(=O)NCc3ccco3)c21,0%
CC(C)CN1CCCC2(CCN(C(=O)c3cccn3C)CC2)C1,-2%
Cn1c(=O)cc(SCC(=O)NCc2ccco2)c2ccccc21,-21%
C[C@@H](C(=O)O)[C@@H]1C[C@@]1(C)[C@@H](NC(=O)OCc1ccccc1)c1ccccc1,10%
CC(Cc1ccccc1)C(=O)N[C@@H](CO)Cc1ccccc1 (stereo partly drawn),-4%
N#Cc1ccccc1CSc1nc(N2CCCCC2)nc(N2CCCCC2)n1,-9%
O=C1c2cccc3c(Cl)ccc(c23)C(=O)N1O,-2%
CC1CCN(C(=O)c2ccc(C(=O)N3CCC(C)CC3)cc2)CC1,-10%
COc1ccccc1N1CCN(C(=O)CCNS(=O)(=O)c2ccc3c(c2)CCC(=O)N3)CC1,-4%

# Reformatted field by field: entries from further up.
COc1cc(CNc2cc(C)ccc2C)cc(OC)c1OC
  HSD17B inh: 9%

CC(Cc1ccccc1)C(=O)N[C@@H](CO)Cc1ccccc1 (stereo partly drawn)
  HSD17B inh: -4%

C[C@@H](C(=O)O)[C@@H]1C[C@@]1(C)[C@@H](NC(=O)OCc1ccccc1)c1ccccc1
  HSD17B inh: 10%

Cc1cc(=O)[nH]c(-n2nc(C)c(Oc3ccccc3O)c2C)n1
  HSD17B inh: -2%

# Molecules listed so far that contain a CF3 group:
SMILES,HSD17B inh
Cc1nc2ccccc2nc1OCC(=O)Nc1cc(C(F)(F)F)ccc1N1CCOCC1,7%
CN1CCN(C(c2cccc(C(F)(F)F)c2)c2nnnn2C(C)(C)C)CC1 (stereo not drawn),7%
COC(=O)c1ccc(C23CC4(C2)[C@H](CN(Cc2cccnc2)[C@@H]4c2ccccc2)C3c2ccc(C(F)(F)F)cc2)cc1 (stereo partly drawn),2%

# Further results
SMILES,HSD17B inh
O=CC(=O)c1ccccc1,1%
CCc1ccc2[nH]cc(C(=O)N3CCCCCC3)c(=O)c2c1,-7%
Cc1cccc(CN2CCN(CC(=O)NCCCN3CCCC3=O)C2=O)c1,12%
CCOC(=O)C(NC(C)=O)(NS(=O)(=O)c1ccccc1)C(F)(F)F (stereo not drawn),6%
NC[C@@H]1O[C@H](O[C@H]2[C@H](O)[C@@H](O[C@H]3[C@H](O)[C@H](N)C[C@H](N)[C@H]3O[C@@H]3O[C@H](CO)[C@@H](O)[C@H](O)[C@@H]3N)O[C@H]2CO)[C@@H](N)[C@H](O)[C@@H]1O,4%[25.6 µM]
O=C1CC(N(O)c2ccccc2)C(=O)N1c1cc(Cl)cc(Cl)c1 (stereo not drawn),-23%

# High-throughput results deposited in PubChem by National Center for Advancing Translational Sciences (NCATS).
